High-throughput results as filed in PubChem BioAssay.
Sa helicase inh: S. aureus DNA helicase inhibition | purified S. aureus helicase, fluorescence unwinding assay; about half of the hits fall short of the stated cut | inhibition, %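 (tested at about 80 µM)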 | 120,000 compounds, 0.05% hits;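 active = both duplicates at 50% or more, or one of them with a favoured structure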;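 note: 0% = mean of negative control wells and 100% = mean of positive control wells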
MgrA DNA FP: S. aureus MgrA-DNA binding modulation | fluorescence polarization | inhibition, %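 (about 10 µg/mL by stock and volumes)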 | 84,000 compounds, 0.13% hits | AID 602314;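 active = above 50% in either of two replicates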;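 note: 0% = protein plus DNA without compound and 100% = DNA alone without protein; higher means less MgrA bound to DNA so lower polarization; one replicate is shown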
Active calls of the source: *.

The opening four records as a preview:
How did CC1(C)CC(NC(=O)c2ccccc2Cl)CC(C)(C)N1 do in these assays?
Sa helicase inh: 4; MgrA DNA FP: -0.1

How did CN(C)C(=O)COC(=O)Cn1cnc2ccccc21 do in these assays?
Sa helicase inh: 8

How did CCn1c(=O)c2cc(C(=O)N(C)CC(OC)OC)sc2c2ccccc21 do in these assays?
Sa helicase inh: 11; MgrA DNA FP: -2.2

How did CC(C)c1nccn1CCC(=O)O do in these assays?
Sa helicase inh: 3; MgrA DNA FP: 4.0

The listing (from the top)
How did CC1(C)CC(NC(=O)c2ccccc2Cl)CC(C)(C)N1 do in these assays?
Sa helicase inh: 4; MgrA DNA FP: -0.1

How did CN(C)C(=O)COC(=O)Cn1cnc2ccccc21 do in these assays?
Sa helicase inh: 8

How did CCn1c(=O)c2cc(C(=O)N(C)CC(OC)OC)sc2c2ccccc21 do in these assays?
Sa helicase inh: 11; MgrA DNA FP: -2.2

How did CC(C)c1nccn1CCC(=O)O do in these assays?
Sa helicase inh: 3; MgrA DNA FP: 4.0

What do the screens show for `COc1cccc(C2C3=C(CC(C)(C)CC3=O)Nc3ccccc3N2C(C)=O)c1` (stereo not drawn)?
Sa helicase inh: 3; MgrA DNA FP: 1.4

What do the screens show for `O=C1c2ccccc2C(=O)N1c1ncn[nH]1`?
Sa helicase inh: -4; MgrA DNA FP: 2.3

How did CCc1nn2c(=O)cc(COc3ccc(NC(=O)c4ccccc4)cc3)nc2s1 do in these assays?
Sa helicase inh: 19

Results for O=C(CSc1nc2ccccc2[nH]1)Nc1cccc(C(F)(F)F)c1 ?
Sa helicase inh: 9; MgrA DNA FP: -1.5

How did COc1ccc(C(=O)Cc2ccc(F)cc2)c(OC)c1 do in these assays?
Sa helicase inh: -7; MgrA DNA FP: 0.8

How did O=C(CSc1nnc(CSc2nc3ccccc3s2)n1Cc1ccccc1)NC1CCS(=O)(=O)C1 (stereo not drawn) do in these assays?
Sa helicase inh: 35

Results for Cc1[nH]c2ccccc2c1C(=O)CSc1nnc(C2CC2)n1C ?
Sa helicase inh: 22

How did O=C(Oc1ccc2c(c1)OCC2=O)c1cccs1 do in these assays?
MgrA DNA FP: 2.5

What do the screens show for `O=C(CSc1c[nH]c2ccccc12)N1CCOCC1`?
Sa helicase inh: -9

What do the screens show for `COC(=O)c1ccc(CSc2nnc(SCC(=O)c3ccc(C)cc3C)s2)o1`?
Sa helicase inh: -3

How did O=C(NCC1CC1)NC(=O)c1c(F)cccc1Cl do in these assays?
MgrA DNA FP: -2.0

What do the screens show for `CC1=NCCNC(C)=C1Sc1ccccc1`?
MgrA DNA FP: -2.5

What do the screens show for `FC(F)(F)c1cc(-c2ccco2)nc(NCCc2ccccc2)n1`?
Sa helicase inh: 34

Results for CCCCC1CCC(C(=O)NCC(c2ccco2)N2CCCC2)CC1 (stereo not drawn) ?
Sa helicase inh: 10

What do the screens show for `CC1Sc2nnc(C(C)(C)C)n2N=C1c1ccc(Cl)cc1` (stereo not drawn)?
Sa helicase inh: 19

How did COc1ccc(OC)c(N/C=C(\C#N)c2nc(-c3cc4cc([N+](=O)[O-])ccc4oc3=O)cs2)c1 do in these assays?
MgrA DNA FP: -1.7

Quoted at random: two records from the list.
What do the screens show for `CC1Sc2nnc(C(C)(C)C)n2N=C1c1ccc(Cl)cc1` (stereo not drawn)?
Sa helicase inh: 19

How did O=C(NCC1CC1)NC(=O)c1c(F)cccc1Cl do in these assays?
MgrA DNA FP: -2.0

Sorted by molecular weight (falling): three of the compounds above
What do the screens show for `FC(F)(F)c1cc(-c2ccco2)nc(NCCc2ccccc2)n1`?
Sa helicase inh: 34

What do the screens show for `CC1Sc2nnc(C(C)(C)C)n2N=C1c1ccc(Cl)cc1` (stereo not drawn)?
Sa helicase inh: 19

How did O=C(NCC1CC1)NC(=O)c1c(F)cccc1Cl do in these assays?
MgrA DNA FP: -2.0

(continued)
What do the screens show for `CCOC(=O)c1cnn(C(=O)c2ccc(C(F)(F)F)cc2)c1N`?
MgrA DNA FP: 0.2

Results for NS(=O)(=O)c1ccc(NC(=O)CSc2nnc3sc4ccccc4n23)cc1 ?
MgrA DNA FP: 4.1

What do the screens show for `O=c1[nH]cnc2ccc(NC(=S)NC3CC3)cc12`?
Sa helicase inh: 10; MgrA DNA FP: -5.5

Results for CCOC(=O)/C(C#N)=N/O ?
Sa helicase inh: -1

Results for NS(=O)(=O)c1cc(C(=O)NCC(F)(F)F)ccc1Cl ?
Sa helicase inh: 0

What do the screens show for `C=CCOc1cc(OCc2ccccc2)c(C(C)=O)c(OCc2ccccc2)c1C(C)=O`?
MgrA DNA FP: -1.1

How did Cc1ccc(NC(=O)c2ccc(CN3CCCn4nc(C)cc43)cc2)c(C)c1 do in these assays?
Sa helicase inh: 4

What do the screens show for `Cc1ccc(S(=O)(=O)N(C)Cc2ccc(-c3nnco3)cc2)cc1`?
Sa helicase inh: 9

What do the screens show for `CCCCn1c(SCC(N)=O)nc2cc(S(N)(=O)=O)ccc21`?
Sa helicase inh: -15

How did O=c1c2ccccc2cnn1-c1ccccn1 do in these assays?
Sa helicase inh: 14

What do the screens show for `CCCn1c(=O)c2sccc2n2c(CCCC(=O)NCCc3ccccc3)nnc12`?
Sa helicase inh: -34

What do the screens show for `COCCN1C=C(C(=O)OC)C(c2cc3c(cc2Br)OCO3)C(C(=O)OC)=C1`?
Sa helicase inh: -12

Results for Cc1c(CC(=O)O)c(=O)oc2c(C)c3occ(-c4ccc(Br)cc4)c3cc12 ?
Sa helicase inh: 2; MgrA DNA FP: 7.7

How did O=C(Cn1ncc2ccccc21)Nc1ccc(Br)cn1 do in these assays?
Sa helicase inh: 11; MgrA DNA FP: 0.7

What do the screens show for `NCCNc1ccccn1`?
Sa helicase inh: 13; MgrA DNA FP: -0.4

How did CC(SCC(=O)N1CCCCCC1)c1nc2scc(-c3cccs3)c2c(=O)[nH]1 (stereo not drawn) do in these assays?
Sa helicase inh: -13

What do the screens show for `O=C(Nc1ccccc1C(=O)NC(Cc1ccccc1)C(=O)O)c1ccccc1` (stereo not drawn)?
Sa helicase inh: 6

Results for C#CCC1(CC#C)C(=O)OC(C)(C)OC1=O ?
MgrA DNA FP: -1.6

What do the screens show for `C=C1C(C(=O)NCc2ccncc2)C1C(=O)NCc1ccncc1` (stereo not drawn)?
Sa helicase inh: -23; MgrA DNA FP: 0.3

How did O=C1Nc2ccccc2C12NNC(=S)NN2 do in these assays?
Sa helicase inh: -19

What do the screens show for `Cc1nc(-c2ccc(S(=O)(=O)N3CCC(n4cccc4)CC3)s2)cs1`?
MgrA DNA FP: -0.4

How did Cc1noc(C)c1CSCC(=O)c1cc(C)n(-c2ccccc2)c1C do in these assays?
Sa helicase inh: -11

What do the screens show for `CC(NC(=O)COn1nnc2ccccc21)C1CC2CCC1C2` (stereo not drawn)?
Sa helicase inh: -5

What do the screens show for `Cc1[nH]nc2c1C(c1ccccc1)C1=C(CC(C)(C)CC1=O)N2` (stereo not drawn)?
Sa helicase inh: -7

How did O=S(=O)(NCc1ccco1)c1ccc2c(c1)Cc1ccccc1-2 do in these assays?
Sa helicase inh: 12; MgrA DNA FP: 27

What do the screens show for `Cc1cccc(NC(=O)Cn2c(=O)n3nc(CCn4nc(C)cc4C)nc3c3ccccc32)c1`?
Sa helicase inh: 19

Results for O=C(NC(=O)c1c(F)cccc1F)Nc1ccccc1Oc1ccc(Cl)cc1Cl ?
MgrA DNA FP: -0.2

How did C(#Cc1ccccc1)CN1CCCCC1 do in these assays?
Sa helicase inh: -1; MgrA DNA FP: 4.2

Results for Nc1cscc1S(=O)(=O)c1ccccc1 ?
MgrA DNA FP: 0.1

Results for C=C(C)C(=O)Nc1ccc2c(c1)C(=O)NC2=O ?
Sa helicase inh: 15; MgrA DNA FP: -0.5

What do the screens show for `COCC(C)n1c(SC(C)C(=O)NC2(C#N)CCCCC2)nc2ccccc2c1=O` (stereo not drawn)?
Sa helicase inh: 10

What do the screens show for `NC(=O)/C=C/C(=O)NCc1ccccc1`?
Sa helicase inh: 26

How did Cn1nc(-c2ccc3c(c2)OCCO3)c2ccccc2c1=O do in these assays?
Sa helicase inh: -5

What do the screens show for `NNc1nc2c(c(=O)[nH]1)C1(CCCCC1)Cc1ccccc1-2`?
Sa helicase inh: 22; MgrA DNA FP: 0.6

Results for CCOC(=O)CN1C(=S)NC(C)(C)C=C1C ?
Sa helicase inh: 9

What do the screens show for `O/N=C/c1cccs1`?
MgrA DNA FP: -1.5

What do the screens show for `Nc1cccnc1Sc1ccccn1`?
MgrA DNA FP: 4.2

Results for FC(F)Oc1ccc(Cl)cc1COc1ncnc2ccccc12 ?
Sa helicase inh: 7

How did Cc1ccc(C(=O)N2N=C3c4ccccc4S(=O)(=O)N3C2N(C)C)cc1 (stereo not drawn) do in these assays?
Sa helicase inh: -2; MgrA DNA FP: -3.5

What do the screens show for `COC(=O)C1=CNC=C(C(=O)OC)C1c1ccc(C(F)(F)F)cc1`?
Sa helicase inh: 5; MgrA DNA FP: -2.1

How did Cc1ccc(C)n1Cc1ccco1 do in these assays?
Sa helicase inh: -15; MgrA DNA FP: 5.7

What do the screens show for `CC(C)(C)n1nc(C2CC2)cc1NC(=O)Nc1ccccc1`?
MgrA DNA FP: -1.3

How did CCOC(=O)c1sc(CS(=O)(=O)c2ccc(Cl)cc2)nc1C do in these assays?
MgrA DNA FP: 3.8

What do the screens show for `O=S(=O)(c1ccc(Br)cc1)C(F)(F)F`?
Sa helicase inh: -4

How did COc1cccc2cc(C(=O)NC3CCCCC3)c(=O)oc12 do in these assays?
Sa helicase inh: -12

How did CCC(NC(N)=O)C(=O)O (stereo not drawn) do in these assays?
Sa helicase inh: -10

How did CCOC(=O)/C(C#N)=C1/Sc2ccccc2N1C do in these assays?
Sa helicase inh: -21

Results for O=C(Cc1cccc2ccccc12)Nc1nnc(-c2ccncc2)o1 ?
Sa helicase inh: 17

How did N#CC(C(=O)C1CC1)=C1SCCS1 do in these assays?
MgrA DNA FP: 2.8

Results for CCN(Cc1ccccc1)c1sc(S(=O)(=O)CC)nc1S(=O)(=O)c1ccc(C)cc1 ?
Sa helicase inh: 10; MgrA DNA FP: -5.4

Results for COc1ccccc1CNc1nc(-c2cc(C)n(C)c2C)cs1 ?
Sa helicase inh: 4

Results for CCn1c(COC(=O)/C=C/c2nc3ccccc3s2)nc2cc(S(=O)(=O)N(C)C)ccc21 ?
Sa helicase inh: -3

Results for COCC(C)NCc1c(F)cccc1F (stereo not drawn) ?
Sa helicase inh: 17

What do the screens show for `CCNc1nc(-c2cccc(C(F)(F)F)c2)cs1`?
Sa helicase inh: 1

What do the screens show for `CCc1ccc(NC(=O)C2CCC(=O)N(c3ccc(OC)cc3)C2c2ccc(OC)cc2)cc1` (stereo not drawn)?
Sa helicase inh: 5; MgrA DNA FP: -1.2

How did CC(=O)Nn1cnc2ccccc21 do in these assays?
Sa helicase inh: -14; MgrA DNA FP: 0.0

What do the screens show for `CSc1ccc2nnc(-c3ccc(F)cc3)n2n1`?
Sa helicase inh: 22; MgrA DNA FP: -0.1

What do the screens show for `Cc1ccc2c(c1)NC(c1ccc(N(C)C)cc1)O2` (stereo not drawn)?
MgrA DNA FP: 0.3

What do the screens show for `Cc1c(OCC(=O)NC2CCCC2)ccc2c1oc(=O)c1ccccc12`?
Sa helicase inh: -14; MgrA DNA FP: -2.3

What do the screens show for `Cc1cc(=O)[nH]c(SC(C)C(=O)NC2CCCCC2)n1` (stereo not drawn)?
Sa helicase inh: 3; MgrA DNA FP: 0.5

Results for CCOC(=O)c1cc2c3c(c1)C1C=CCC1C(c1ccc(Cl)cc1)N3CC1CC=CC21 (stereo not drawn) ?
MgrA DNA FP: 5.2

What do the screens show for `O=C(Cc1ccc(S(=O)(=O)N2CCCC2)s1)Nc1ccc2c(c1)OCO2`?
Sa helicase inh: -7

What do the screens show for `Cc1ccc(C)n1CCN1CCN(S(=O)(=O)c2ccccc2)CC1`?
Sa helicase inh: -3; MgrA DNA FP: 0.0

Results for Clc1ncc(CN2CCN(c3ccccc3)CC2)s1 ?
MgrA DNA FP: -1.4

Results for COc1cccc(C2CC(C(F)(F)F)n3ncc(C(=O)N4CCCCC4)c3N2)c1 (stereo not drawn) ?
Sa helicase inh: -13

How did CN(CC(=O)N(C1CCCCC1)C1CCS(=O)(=O)C1)Cc1nc2ccccc2c(=O)[nH]1 (stereo not drawn) do in these assays?
Sa helicase inh: 4

How did Cc1ccc(NC(=O)CN(C)C(=O)COc2cccc3cccnc23)cc1 do in these assays?
Sa helicase inh: 4

How did O=C(/C=C/c1cc(Br)ccc1F)OCC(=O)N1CCOCC1 do in these assays?
Sa helicase inh: -10

Results for COc1cc(C(=O)OC(C)CN2C(C)CCCC2C)cc(OC)c1OC (stereo not drawn) ?
Sa helicase inh: 9; MgrA DNA FP: -1.5

How did CCN(CC)c1ccc(C2C(C#N)=C(N)N(c3cccc(C)c3)C3=C2C(=O)CCC3)cc1 (stereo not drawn) do in these assays?
Sa helicase inh: 32

Brought forward from above: two compounds; new compounds follow.
Results for COc1cc(C(=O)OC(C)CN2C(C)CCCC2C)cc(OC)c1OC (stereo not drawn) ?
Sa helicase inh: 9; MgrA DNA FP: -1.5

How did CCN(CC)c1ccc(C2C(C#N)=C(N)N(c3cccc(C)c3)C3=C2C(=O)CCC3)cc1 (stereo not drawn) do in these assays?
Sa helicase inh: 32

What do the screens show for `CCOc1ccc(/C=C\C(C)=N\O)cc1`?
Sa helicase inh: 8

What do the screens show for `CC(C)Nc1nc(NC(C)C)nc(Nn2cnnc2)n1`?
Sa helicase inh: 7; MgrA DNA FP: 0.8

Results for CC(C)Nc1c(-c2ccccc2)oc2ccc(C(=O)O)cc2c1=O ?
MgrA DNA FP: 4.5

Results for CCNc1nc(-c2ccccc2)cs1 ?
MgrA DNA FP: -3.2

What do the screens show for `CC[n+]1ccsc1N`?
Sa helicase inh: 15; MgrA DNA FP: -2.4

What do the screens show for `O=C(Cc1ccccc1)N1CCSC1=S`?
Sa helicase inh: 3; MgrA DNA FP: 6.9

How did COc1ccc2c(c1)N(C)/C(=C1/SC(=Nc3ccc(C)cc3)N(C)C1=O)S2 do in these assays?
Sa helicase inh: -1; MgrA DNA FP: 19

Not all compounds are listed; rates above refer to the full screens.
